# nsP2pro inh = inhibitors of chikungunya virus nsP2 protease | Q8JUX6 | Potency, µM (top dose mostly 24.9 µM), for inactives: at the top dose activity change, negative = inhibition, most hits filed as inhibitors | actives 1.1% (n = 31,000) | FRET peptide cleavage, nsP2pro, fluorescence 1 h; active means well fitted inhibition curve with a large enough effect; inconclusive means small, poorly fitted or top-dose-only effect; inactive means no such curve, though single readings can be large or run the other way; also: nearly all actives have a fitted effect of over 60% in size; a reference inhibitor and vehicle were the controls
# Active calls of the source: *; i = inactive; ? = inconclusive; & = joins results of further samples; [ ] = another dose, or the depositor's remark. % is scaled to controls: 0 for no effect and ±100 for the full control effect; potency is read from the fitted curve at half-maximal effect. Only part of the results is shown (hit frequency here may not be typical).
SMILES,nsP2pro inh
CC1(C)CCC2(C(=O)OC3OC(COC4OC(CO)C(O)C(O)C4O)C(O)C(O)C3O)CCC3(C)C(=CCC4C5(C)CCC(O)C(C)(C(=O)O)C5CCC43C)C2C1O (configuration not stated),37%[5.1 µM]
CC(=O)NC(CO)C(=O)N1CCc2[nH]nc(-c3ccc(F)c(F)c3)c2C1 (configuration not stated),i
CCCn1c(C)nc2c(Nc3ccccc3)nc(C)nc21,-2%
Cc1ccc(OC2(C(=O)O)CCN(Cc3ccc(CO)o3)CC2)cc1,3%
CN1CCC2=C(C1)c1ccccc1Cc1ccccc12,-7%&36%
CC(C)c1ccc(NC(=O)c2cc3c(s2)-c2ccccc2SC3)cc1,-17%
COc1ccc(NC(=O)N2C[C@@H]3C[C@H](C2)c2ccc(NC(=O)c4ccccn4)c(=O)n2C3)cc1,i
O=[S+]([O-])(Nc1nccs1)c1ccc(NCc2cccc(Cl)c2)cc1,2%
COc1ccc(NC(=O)N[C@H]2[C@H](O)[C@@H](N(C)CCc3ccccn3)[C@@H]3OC[C@H]2O3)cc1,?
C[C@H](CCC(=O)O)[C@H]1CC[C@H]2[C@H]3C(C[C@H](O)[C@]12C)[C@@]1(C)CC[C@@H](O)C[C@H]1C[C@H]3O (some centres not stated),-20%
CCOc1ccc(N(Cc2ccccc2)C(=O)c2nc(SCC)ncc2Cl)cc1,4%
COc1ccc(C(=O)NCC(c2cccnc2)N2CCN(c3ccccc3)CC2)cc1 (configuration not stated),-10%
CN1CC2(CCOC2)N(C2CCN(C(=O)C3CCCC3)CC2)C1=O (configuration not stated),?
O=C(Nc1cccnc1)c1cccs1,-2%
Cc1ccc2nc3sc(C(=O)N4CCOCC4)cc3cc2c1,-6%
Brc1cccc(-c2nnc(CN3CCN(c4ccccn4)CC3)o2)c1,-20%
CCc1nnc(CN2CCC(C(=O)Nc3cccc(-c4ccco4)c3)CC2)o1,?
CC(=O)c1ccc(C(=O)N[C@H]2COC[C@H]2Cc2cc(C)no2)s1,i
CCc1ccccc1NC(=O)C(CC)Sc1ncnc2c1sc1ccccc12 (configuration not stated),-16%
Cc1ccc(OCC(=O)OCc2cc(=O)n3c(C)csc3n2)cc1,1%
Cc1nc(-c2cccs2)cc([C@H]2CN3CC[C@H]2C[C@@H]3COC(=O)NC2CCCCC2)n1,6%
COc1ccc(C(=O)Nc2nc(-c3ccccc3)cs2)c(NS(=O)(=O)c2ccc(C)cc2)c1,-2%
CC(C)(C)CC(C)(C)c1ccc(OCCOCC[N+](C)(C)Cc2ccccc2)cc1,213%&169%[activator]
O=C(Cc1ccsc1)N1CCC2(CC1)N=C(c1cccc(Br)c1)NO2,i
O=S(=O)(c1ccc(F)cc1)N1CCCC(CN2CCOCC2)CC1 (configuration not stated),i
SMILES,nsP2pro inh
Nc1ncnc2c1ncn2[C@H]1CCCO1,-5%
C1CC2(CCN1)CC(OCC1CC1)CCO2 (configuration not stated),4%
CCN(C(=O)Cn1c(=O)n(CCCS(=O)(=O)C2CCCCC2)c(=O)c2ccccc21)c1cccc(C)c1,-17%
Cc1c(-c2ccccc2)nc2c(Cl)cccc2c1C(=O)OCC(=O)c1ccc(F)cc1,-24%
CC(C)C[C@H]1C(=O)O[C@H](Cc2ccc(N3CCOCC3)cc2)C(=O)N(C)[C@@H](CC(C)C)C(=O)O[C@H](C)C(=O)N(C)[C@@H](CC(C)C)C(=O)O[C@H](Cc2ccc(N3CCOCC3)cc2)C(=O)N(C)[C@@H](CC(C)C)C(=O)O[C@H](C)C(=O)N1C,6%
O=C(OCC#CCSc1nnc(-c2ccccc2Cl)o1)c1ccc(F)cc1,-4%
O=C(Cn1cccc1C(=O)c1ccccc1)NCc1ccc(F)cc1,-13%
O=C1OC[C@@H]2CCN(Cc3ccc(C(F)(F)F)cc3)Cc3ccc(F)cc3N12,-4%[39.2 µM]
Fc1cccc(CNc2ncnc3ccc(-c4ccoc4)cc23)c1,-4%
CCN1CC(c2ccccc2)CC2(CCN(C(=O)c3ccon3)CC2)C1 (configuration not stated),i
COc1ccc(CNC(=O)c2cc3c(s2)CN(C2CC2)C3)cc1OC,i
Cc1[nH]cnc1-c1nccn1CC(CO)Cc1cccs1 (configuration not stated),i
CC(C)CC(=O)OC[C@H]1O[C@@](COC(=O)CC(C)C)(O[C@H]2O[C@H](CO)[C@@H](O)[C@H](O)[C@H]2O)[C@@H](OC(=O)CC(C)C)[C@@H]1OC(=O)CC(C)C,?
O=C1CCCC2=C1C(c1[nH]ncc1Cl)N=C(Nc1nc3cc(Cl)ccc3o1)N2 (configuration not stated),-1%
C[C@H](N[C@@H](CCc1ccccc1)C(=O)O)C(=O)N1Cc2ccccc2C[C@H]1C(=O)O,-26%
O=C(c1cc(Cl)c(O)c(Cl)c1)N1CS(=O)(=O)c2ccccc21,-7%
CCCn1cc(NC(=O)C[C@H]2NC(=O)c3ccccc3NC2=O)c(C)n1,2%
CCC[C@@H]1C[C@@H](C(=O)N[C@@H]([C@H]2O[C@H](SC)[C@H](OP(=O)(O)O)[C@@H](O)[C@H]2O)[C@H](C)Cl)N(C)C1,-7%[10 µM]
c1nc(NCC2CCCC2)c2cc(-c3ccc4c(c3)OCO4)ccc2n1,i
CC1(C)CC[C@]2(C(=O)O)CC[C@]3(C)C(=CCC4[C@@]5(C)C[C@@H](O)[C@H](O)C(C)(C)C5CC[C@]43C)[C@@H]2[C@@H]1O (some centres not stated),?
CCc1ccccc1NC(=O)c1ccc2[nH]c(C)c(C)c2c1,-20%
O=C(Cn1c(=O)n(-c2ccccc2)c(=O)c2c3c(sc21)CCCC3)Nc1ccc(F)cc1F,-13%
COc1ccc(NC(=O)C2CCN(S(=O)(=O)c3ccc4[nH]c(=O)ccc4c3)CC2)cc1Cl,-9%
C[C@@H](NC(=O)[C@H](O)c1cc(F)cc(F)c1)C(=O)N[C@@H]1C(=O)N(C)c2ccccc2-c2ccccc21,-12%
Cc1ccc(CN2CC(Oc3ccccc3C(=O)NCc3ccccc3)C2)o1,1%

# In the list so far, these contain bromine:
SMILES,nsP2pro inh
Brc1cccc(-c2nnc(CN3CCN(c4ccccn4)CC3)o2)c1,-20%
O=C(Cc1ccsc1)N1CCC2(CC1)N=C(c1cccc(Br)c1)NO2,i

# Part of the list above, field by field:
COc1ccc(CNC(=O)c2cc3c(s2)CN(C2CC2)C3)cc1OC
  nsP2pro inh: i
Cc1[nH]cnc1-c1nccn1CC(CO)Cc1cccs1 (configuration not stated)
  nsP2pro inh: i
CC(C)CC(=O)OC[C@H]1O[C@@](COC(=O)CC(C)C)(O[C@H]2O[C@H](CO)[C@@H](O)[C@H](O)[C@H]2O)[C@@H](OC(=O)CC(C)C)[C@@H]1OC(=O)CC(C)C
  nsP2pro inh: ?
O=C1CCCC2=C1C(c1[nH]ncc1Cl)N=C(Nc1nc3cc(Cl)ccc3o1)N2 (configuration not stated)
  nsP2pro inh: -1%

# Next section.
SMILES,nsP2pro inh
Cc1ccccc1-c1nn2c(=O)cc(CN3CCN(C(=O)c4ccccc4Br)CC3)nc2s1,-19%
CCOC(=O)c1cnc2ccc(Br)cc2c1NCCN1CCOCC1,-15%
CCCCCCCCc1ccc(CCC(N)(CO)CO)cc1,308%[activator]
CCCN1CCN(CCCNC(=O)c2c(C)nn(-c3ccc(F)cc3)c2-n2cccc2)CC1,-9%
Cc1cnc(-c2ccncc2)n1CCN,i
COCC(=O)N[C@@H]1CN(Cc2cn(C)nc2C)C[C@H]1CO,i
COc1ccc(C)cc1NC(=O)CSc1nc2ccccc2nc1N1CCOCC1,-16%
Cc1ccc(S(=O)(=O)Nc2cccc(C(=O)Nc3nc(-c4ccccc4)cs3)c2Cl)cc1,-6%
CCc1ccc(OCC(=O)Nc2cc3oc4ccccc4c3cc2OC)c(Br)c1,-16%
Cc1cc(=O)oc2c3c(ccc12)OCN(Cc1ccccc1Cl)C3,32%
CC1C(OC(=O)c2ccccc2)C(O)C2C(C(=O)O)=COC(OC3OC(CO)C(O)C(O)C3O)C12 (configuration not stated),15%[10 µM]
CN1C(=O)CCCCC1C(=O)NCC1CCCCC1 (configuration not stated),4%
Cc1ccc(/C(=C\CN2CCCC2)c2cccc(/C=C/C(=O)O)n2)cc1,-26%
C[C@H](Nc1cc2c(-c3ccc4c(c3)OCO4)noc2cn1)c1ccccc1,-24%
CC(C)(C)NC[C@H](O)c1ccc(O)cc1Cl,7%
O=S(=O)(c1ccsc1)N1CCN(c2nc(-c3cccs3)nc3ccccc23)CC1,-7%
CC(=O)N1CCC(Cc2ccc(CN(C(=O)CCc3ccccc3)C3CC3)cc2)CC1,?
Cc1nn(C)c2c1c(-c1ccccc1)cc(=O)n2Cc1ccc(Br)cc1F,-14%
O=C(CCCCn1c(=O)c2ccccc2n(CC(=O)Nc2ccc(F)cc2F)c1=O)NCc1ccccc1Cl,1%
O=C(CN1N=C(c2ccccc2)CCC1=O)NCc1ccc(F)cc1Cl,3%
COc1ccc(N2CCN(CCCNC(=O)c3ccc4nc(N5CCCCC5)sc4c3)CC2)cc1,7%
CCCCS(=O)(=O)NC1CCc2nn(CC3CC3)c(=O)n2CC1 (configuration not stated),i
Cc1c(C(C)NC(=O)c2ccc(=O)[nH]c2)cnn1-c1cccc2ccccc12 (configuration not stated),?
O=C(Cn1ccn2nc(-c3ccc(F)cc3)c(CO)c2c1=O)Nc1ccc(F)cc1F,i
CC1(C)CN(C(=O)COc2ccccc2)CC(=O)N(Cc2ccccc2)C1,-12%

# Part of the list above in order of formula weight, ascending:
SMILES,nsP2pro inh
Cc1cnc(-c2ccncc2)n1CCN,i
CC(C)(C)NC[C@H](O)c1ccc(O)cc1Cl,7%
O=C(Cn1ccn2nc(-c3ccc(F)cc3)c(CO)c2c1=O)Nc1ccc(F)cc1F,i
CCCN1CCN(CCCNC(=O)c2c(C)nn(-c3ccc(F)cc3)c2-n2cccc2)CC1,-9%

# Further structures
SMILES,nsP2pro inh
O=C(Cn1c(=O)nc(-c2ccccc2)c2cc(Cl)ccc21)NCCCc1ccccc1,-10%
COc1ccc(C(=O)Nc2noc3ccccc23)cc1,-8%
O=c1[nH]cnc2c1ncn2[C@H]1CC[C@@H](CO)O1,-11%&-4%
CCc1cc2c(cc3c(=O)n(CC(=O)N4CCN(c5cc(Cl)ccc5C)CC4)ncn32)s1,-10%
O=C(CCCCn1c(=O)[nH]c2ccsc2c1=O)N1CCN(c2cccc(C(F)(F)F)c2)CC1,-9%
COc1cccc(CNc2ccc(S(=O)(=O)Nc3ccccc3)cc2)c1O,i
NC(=O)[C@@H](CCC(F)(F)F)N(Cc1ccc(-c2ncon2)cc1F)S(=O)(=O)c1ccc(Cl)cc1,19%&-6%&7%
Cc1cc(C)cc(N2CCN(c3cc(C4CC(O)C4)ncn3)CC2=O)c1 (configuration not stated),1%
COc1ccccc1CNC(=O)NCc1noc2ccc(C)cc12,-20%
COc1ccc(-c2nc3c(c(SCC(=O)N4CCCCC4)n2)Cc2c(CO)cnc(C)c2O3)cc1,?
COc1ccc(C(C)=O)cc1CSc1nc(Nc2ccc(F)c(F)c2)c2ccccc2n1,0%
CC(=O)O[C@H]1CC[C@H]2[C@@H]3CCC4=CC(=O)CCC4=C3C=C[C@]12C,-13%
CCCC(=O)OC(C(Cl)(Cl)Cl)P(=O)(OC)OC (configuration not stated),-14%[39.2 µM]
CCN1CCN(Cc2nc3cc(NC(=O)c4ccccc4[N+](=O)[O-])ccc3n2CC)CC1,14%
CC(=O)Nc1ccc(NC(=O)c2cc3sccc3n2Cc2ccc(Cl)cc2)cc1,23%
Oc1ccccc1,?
O=S(=O)(NCCCCCNS(=O)(=O)c1c(F)cccc1F)c1ccc2c(c1)OCCO2,i
CCN(CC)C(=O)Cn1c(=O)n(CCCCCC(=O)NCc2ccc3c(c2)OCO3)c(=O)c2sccc21,-18%
CC(C)N(CCCCOCC(=O)NS(C)(=O)=O)c1cnc(-c2ccccc2)c(-c2ccccc2)n1,21%&-3%
O=C(/C=C/c1ccc(O)c(O)c1)O[C@H]1[C@@H]2C=CO[C@@H](O[C@@H]3O[C@H](CO)[C@@H](O)[C@H](O)[C@H]3O)[C@@H]2[C@@]2(CO)O[C@@H]12,-7%[10 µM]
CC(C)c1nc2sc3c(N4CCCCC4)ncnc3c2c2c1CCCC2,-7%
C[C@@H]1O[C@@H](O[C@H]2[C@@H]3C=CO[C@@H](O[C@@H]4O[C@H](CO)[C@@H](O)[C@H](O)[C@H]4O)[C@@H]3[C@@]3(CO)O[C@@H]23)[C@H](O)[C@H](O)[C@H]1OC(=O)/C=C/c1ccc(O)cc1,4%[10 µM]
CN(C)S(=O)(=O)c1ccc(NC(=S)N2CCC(C(O)(c3ccccc3)c3ccccc3)CC2)cc1,-13%
CCn1c(C(=O)NCc2ccc(C)cc2)cc2sc(Cl)cc21,-4%
C1CCN2C[C@@H]3C[C@@H](CN4CCCC[C@@H]34)[C@H]2C1,-4%
SMILES,nsP2pro inh
O=C(c1cccc(OC2CN(CC3CC=CCC3)C2)c1)N1CCCC1 (configuration not stated),i
CCOc1cc(CNc2ccc(O)cc2)ccc1OCc1ccc(Cl)cc1,10µM*
CCCCOc1ccc(C(=O)NCc2cn3cccc(C)c3n2)cc1,-1%
O=C(Nc1ccc2c(N3CCCC3)ncnc2c1)c1cc(F)ccc1Cl,i
CCOc1cc(CNc2ccc(C(=O)O)cc2)ccc1OCc1ccccc1,-19%
O=C1NCC2(CCCN(C(=O)CCc3nc4ccccc4[nH]c3=O)C2)O1 (configuration not stated),4%
O=C1Nc2ccccc2CC12CCCN2C1COC1 (configuration not stated),i
CCCCOc1ccc(-c2nonc2NC(=O)c2ccco2)cc1,-8%
COc1ccc(S(=O)(=O)NCC(c2ccc(N(C)C)cc2)N2CCCC2)cc1F (configuration not stated),2%
CC1OC(OC2C(Oc3cc(O)c4c(c3)OC(c3ccc(O)cc3)CC4=O)OC(CO)C(O)C2O)C(O)C(O)C1O (configuration not stated),-22%
O=C(O)c1ccc(CN2C[C@@H]3OCC(=O)N(c4ccccc4)[C@@H]3C2)cc1,-3%[39.2 µM]
